miR-21 FLuc = miR-21 reporter, rising signal | AID 2288 | HeLa miR-21 FLuc reporter, luciferase, 48 h | Potency, µM (doses to about 38.3 µM), inactives show top-dose reporter change, positive = more light | 340,000 tested, under 10 active; active = well fitted rising curve with a large enough effect; inconclusive = small, poorly fitted or top-dose-only effect; inactive = no such curve, though single readings can be large or run the other way;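 note: % of control where 0% means no effect; miR-21 action dims this reporter so a rising signal means less miR-21 action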
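HeLa cells stably expressing CMV-driven firefly luciferase with a downstream miR-21 binding sequence, endogenously expressing miR-21, were treated with titrations (up to about 40uM final) for 48 hours at 37 degree Celsius. Luciferase luminescence was read after lysis.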
Rango release inh = inhibition of RanGTP-driven Rango-importin beta dissociation | O95149+P62826 | Biochemical FRET Rango-importin beta, RanGTP-induced dissociation | Potency, µM (top dose mostly 46.1 µM), inactives show at the top dose activity change, negative = inhibition | 340,000 tested, 0.071% active | AID 540253; active means falling FRET ratio curve, often poorly fitted, with flat reads before Ran was added; inconclusive means other falling curves, or compound fluorescence or quenching; inactive means flat or rising ratio curve;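 note: potency is the fitted concentration of half-maximal effect; % of control where 0% means no effect; nearly all actives have a fitted effect of over 45% in size; -100% = wells without RanGTP and RCC1; the record marks most hits as doubtful in a second field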
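Recombinant Rango FRET biosensor (EYFP–snurportin 1 IBB–cerulean CFP10) at 0.1 uM premixed with 0.25 uM importin beta in PBS, 1 mM DTT, 0.02% Tween-20, 0.1% BSA. Compound added 5 min; RanGTP-RCC1 (0.6 uM Ran, 2 mM GTP, 0.2 uM RCC1) then triggers release, read at 45 min.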
GLA inh pH 4.5 = inhibitors of human alpha-galactosidase A at pH 4.5 | P06280 | activity change, negative = inhibition, % at 105 µM | purified enzyme, 4-MU-alpha-Gal fluorescence, pH 4.5 | AID 1467 | 230,000 tested, under 10 active; inconclusive = small, poorly fitted or top-dose-only inhibition, or a rising curve; inactive = flat fitted curve, though single readings scatter; no compound was filed as active;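 note: 0% = full activity with enzyme and -100% = basal without enzyme; dose as in the result columns while the protocol names 77 µM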
Rango-impB inh = inhibitors of Rango-importin beta complex formation. Q14974. 340,000 tested, 0.031% active. Rango CFP/YFP FRET sensor + importin beta, 45 min. Potency, µM (series often up to 92.2 µM), for inactives: at the highest dose inhibition of complex formation; active = rising FRET ratio curve, often small or poorly fitted; inconclusive = mostly compound fluorescence or quenching in the first reads; inactive = flat curves in all reads;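 note: potency is the fitted concentration of half-maximal effect; 0% = DMSO wells and 100% = buffer wells lacking importin beta; nearly all actives have a fitted effect of over 15% in size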
Target sequence (Q14974 whole entry, looked up): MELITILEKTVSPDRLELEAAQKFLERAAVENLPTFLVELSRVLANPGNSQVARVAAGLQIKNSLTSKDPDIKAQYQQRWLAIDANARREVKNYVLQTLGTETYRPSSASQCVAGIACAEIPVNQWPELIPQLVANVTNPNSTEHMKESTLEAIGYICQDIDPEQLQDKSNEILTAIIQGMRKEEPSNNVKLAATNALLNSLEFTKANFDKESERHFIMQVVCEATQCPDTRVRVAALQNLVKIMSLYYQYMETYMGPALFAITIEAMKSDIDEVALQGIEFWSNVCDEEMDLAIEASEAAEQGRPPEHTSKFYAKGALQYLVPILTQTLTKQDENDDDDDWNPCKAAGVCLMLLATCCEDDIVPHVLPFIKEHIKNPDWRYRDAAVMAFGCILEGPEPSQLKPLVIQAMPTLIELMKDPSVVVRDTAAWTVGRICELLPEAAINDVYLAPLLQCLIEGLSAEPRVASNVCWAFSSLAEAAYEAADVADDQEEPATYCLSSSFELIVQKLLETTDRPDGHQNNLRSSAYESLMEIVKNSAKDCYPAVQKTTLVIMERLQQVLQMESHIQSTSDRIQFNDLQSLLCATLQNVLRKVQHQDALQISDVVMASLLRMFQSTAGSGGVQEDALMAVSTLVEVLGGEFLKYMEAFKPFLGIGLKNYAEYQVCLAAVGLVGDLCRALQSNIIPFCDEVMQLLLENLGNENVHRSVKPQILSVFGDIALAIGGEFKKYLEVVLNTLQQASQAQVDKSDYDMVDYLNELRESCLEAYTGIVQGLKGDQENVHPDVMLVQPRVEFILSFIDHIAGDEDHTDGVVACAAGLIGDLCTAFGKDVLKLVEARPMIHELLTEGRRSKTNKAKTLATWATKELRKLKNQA
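Inhibition scored from the CFP 486 nm/YFP 530 nm FRET ratio 45 min after adding 0.125 microM importin beta to 50 nM Rango biosensor preincubated 5 min with compound (room temperature, PBS with DTT, Tween-20, BSA). No-importin wells as positive control.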
Numbers without * were called inactive; ? = inconclusive; . = no result given; & = joins results of further samples. Some of the compounds tested. The share of hits here may be higher or lower than overall.

no.	mol	miR-21 FLuc	Rango release inh	GLA inh pH 4.5	Rango-impB inh
1	Cc1ccc(N(C(=O)c2csnn2)C(C(=O)NC2CCCCC2)c2ccccn2)cc1C (centres undefined)	-1%	3%	.	-1.2%
2	CC1CCN(C(=O)C2CCC(CNS(=O)(=O)c3cccc4cccnc34)CC2)CC1 (centres undefined)	1%	.	-3	.
3	CN1CCCNc2nc3ccccc3nc21	-34%	-14%	4	-1.0%
4	Clc1ccccc1/C=N/NC1=Nc2cccc3cccc1c23	-53%	-5%	-10	?
5	COc1ccc(N(C)C(=O)CCS(=O)(=O)c2cccc3nonc23)cc1	-5%	-13%	11	-1.6%
6	Nn1c(Nc2ccccc2)nc2ccccc21	-41%	1%	-6	0.0%
7	Cc1cccc2nc(COc3ccc(Cl)c4cccnc34)cn12	-81%	-7%	4	1.5%
8	CCOC(=O)c1c(C)[nH]c(C(=O)COC(=O)c2ccncc2)c1C	-10%	9%	-2	4.9%
9	CCN=C1SC(CC(=O)Nc2ccc3c(c2)OCO3)C(=O)N1CC (centres undefined)	5%	-11%	2	3.5%
10	CCN1CCN(C(=O)/C=C/c2ccc(C(C)C)cc2)CC1	.	9%	.	1.0%
11	Cc1sc2ncn(CC(=O)NCCN(C)C)c(=O)c2c1S(=O)(=O)N1CCC(C)CC1	8%	-8%	.	-1.9%
12	O=C(Oc1ccccc1C(=O)N1CCOCC1)c1ccccc1	0%	3%	1	0.6%
13	CC(=O)c1ccccc1N(C(=O)Cn1nnc2ccccc21)C(C(=O)NCC1CCCO1)c1ccc(N2CCOCC2)cc1 (centres undefined)	4%	-8%	7	3.3%
14	O=C(N/N=C/c1sc2ccccc2c1O)c1ccccc1	-7%	?	-5	?
15	COc1ccc(C(=O)Nc2nc3cc4c(cc3s2)OCO4)c(OC)c1	-50%	-26%	17	3.9%
16	COc1ccc(-c2nc3ccccn3c2CN2CCN(c3ccccc3F)CC2)cc1	-16%	-10%	-7	-2.3%
17	O=C(N/N=C/c1ccc2c(c1)OCO2)c1cc(-c2ccccc2Cl)nc2ccccc12	-4%	17%	-3	-0.3%
18	CC(=O)c1cccc(NS(=O)(=O)N2CCCCC2)c1	-1%	-2%	2	-0.4%
19	O=C(Nc1ccc(Br)cc1)c1cc(-c2ccncc2)nc2ccccc12	.	-7%	.	0.5%
20	C=CCn1cnc2scc(-c3ccc(CC)cc3)c2c1=O	-10%	-17%	1	-4.2%
21	Cc1cc(C)n2nc(C(=O)OCC(=O)Nc3ccc(C)c(S(=O)(=O)N(C)C)c3)nc2n1	.	3%	.	-16%
22	COc1ccc(CNC(=O)CNC(=O)c2ccc(C(C)(C)C)cc2)cc1OC	1%	-4%	.	-2.8%
23	CCOc1ccc2ccccc2c1/C=N/NC(=O)c1c(C)cc(C)[nH]c1=O	.	-1%	.	0.0%
24	CCC(=O)N(CCc1ccc(S(N)(=O)=O)cc1)C1CC(=O)N(c2ccc(OC)cc2)C1=O (centres undefined)	1%	-1%	2	-2.8%
25	C=CCSc1nnc(NC(=O)C2CSC3(C)CCC(=O)N23)s1 (centres undefined)	.	-1%	.	4.8%
26	COc1cc(/C=C2/C(=O)NN(c3ccc(Cl)cc3)C2=O)ccc1OC(=O)c1ccco1	0%	-11%	-22	-2.7%
27	O/N=C\c1cccn1-c1nccs1	5%	0%	9	-2.4%
28	CCOC(=O)c1ccccc1NC(=O)CSc1cccc[n+]1[O-]	-4%	30%	9	0.8%
29	Cc1csc2nc3ccccc3c(=O)n12	-15%	7%	9	1.1%
30	CCN1C(=O)/C(=C2/Sc3ccccc3N2CCCS(=O)(=O)O)SC1=S	-5%&0%	?	4&-7	?

Next section, overlapping the part above by four compounds.
no.	mol	miR-21 FLuc	Rango release inh	GLA inh pH 4.5	Rango-impB inh
27	O/N=C\c1cccn1-c1nccs1	5%	0%	9	-2.4%
28	CCOC(=O)c1ccccc1NC(=O)CSc1cccc[n+]1[O-]	-4%	30%	9	0.8%
29	Cc1csc2nc3ccccc3c(=O)n12	-15%	7%	9	1.1%
30	CCN1C(=O)/C(=C2/Sc3ccccc3N2CCCS(=O)(=O)O)SC1=S	-5%&0%	?	4&-7	?
31	O=S(=O)(c1cnc(Cl)c(Cl)c1)N1CCCc2ccccc21	4%	-2%	-1	5.7%
32	CCN(c1ccccc1)S(=O)(=O)c1ccc(OC)c(NC(=O)Cc2ccc(F)cc2)c1	.	-6%	.	0.8%
33	O=C(O)c1cccc(Nc2nc(-c3ccc([N+](=O)[O-])cc3)nc3ccccc23)c1	-2%	-6%	.	0.6%
34	CC(C)C(c1nnnn1Cc1ccco1)N1CCN(C2CCCC2)CC1 (centres undefined)	-4%	0%	-2	1.5%
35	CCCCN(CCCC)C(=O)c1ccccc1NC(=O)CN1C(=O)c2ccccc2C1=O	1%	9%	-3	-1.0%
36	Cn1c(=O)c2c(c3ccccc31)OC(=O)CC2c1cccnc1 (centres undefined)	-1%	3%	6	6.9%
37	CN=c1scc(C)n1/N=C/c1ccc(O)cc1	-42%	-7%	-10	-0.7%
38	CCn1c(C)nc2cc(C(=O)N/N=C/c3ccccc3)ccc21	-57%	-8%	-6	-0.2%
39	CC1CCCN(C(=O)CCS(=O)(=O)c2ccc3c(c2)n(C)c(=O)c(=O)n3C)C1 (centres undefined)	3%	-10%	.	1.7%
40	CCOC(=O)C1(CCCc2ccccc2)CCN(C2CCSCC2)CC1	14%	5%	-2	0.0%
41	COc1ccc(Br)cc1S(=O)(=O)NCc1ccccc1	-10%	25%	0	-0.7%
42	CC(=O)N1CCN(C(=O)COC(=O)/C=C/c2ccccc2[N+](=O)[O-])CC1	.	-13%	.	0.6%
43	COc1cccc(-c2ccc(C#N)c(SCC(=O)NCCc3ccc(Cl)cc3)n2)c1	-8%	-6%	8	0.4%
44	O=C(CCSc1ccc(Cl)cc1)NC1CCCC1	-6%	6%	.	2.4%
45	CCCCCCOC(=O)C1=C(C)NC(=O)NC1c1ccc2c(c1)OCO2 (centres undefined)	-3%	5%	.	-2.2%
46	O=C(NCc1ccco1)C1CCCN1C(=O)Nc1cccc(Cl)c1 (centres undefined)	0%	-13%	2	-0.4%
47	O=S1(=O)NC(=NCc2ccccc2)c2ccccc21	2%	-3%	0	0.0%
48	CCCCCC1C(=O)N2C=C(c3ccccc3)c3ccccc3N2C1=O (centres undefined)	.	?	.	?
49	Cc1cc(Cl)ccc1OCCCC(=O)NC1CCN(C)CC1	-14%	9%	0	-1.9%
50	CCC(CC)NC(=O)c1n[nH]c(=O)c2ccccc12	-22%	2%	5	-1.7%
51	CCCCN(C(=O)c1cccc(-n2cccc2)c1)c1c(N)n(CCC)c(=O)[nH]c1=O	.	3%	.	-2.9%
52	CC(C)C1Nc2c(C(=O)O)cccc2C(Nc2ccccc2C(=O)O)C1(C)C (centres undefined)	1%	?	3	?
53	CCCn1c(=O)[nH]c(=O)c2[nH]cnc21	-2%	-1%	2&-1	-6.0%
54	O=C(O)Cc1coc2ccc3ccccc3c12	-8%	-14%	-3	2.7%
55	CC(=O)NCc1ccc(S(=O)(=O)NC2CCN(Cc3ccccc3)CC2)cc1	-3%	8%	5	-2.2%
56	CC1O[C@@H](O[C@H](C)CC[C@@H](C)O)C(O)C[C@H]1O (some centres undefined)	.	12%	.	6.2%
57	COc1ccc(CNc2ccc3cn[nH]c3c2)c(OC)c1OC	0%	-13%	3	-7.5%
58	CN(CCC#N)C(=O)COC(=O)c1ccc2c(c1)C(=O)N(C1CCCCC1)C2=O	1%	0%	.	6.9%
59	O=C(CSc1nnc(-c2ccccc2Cl)o1)Nc1ccc2c(c1)OCCO2	-75%	18%	7	-0.8%
60	CCCC(C)NC(=O)C1CCN(S(=O)(=O)c2ccccc2)CC1 (centres undefined)	-4%	4%	11	0.7%

Quoted at random: three entries already listed
no.	mol	miR-21 FLuc	Rango release inh	GLA inh pH 4.5	Rango-impB inh
57	COc1ccc(CNc2ccc3cn[nH]c3c2)c(OC)c1OC	0%	-13%	3	-7.5%
58	CN(CCC#N)C(=O)COC(=O)c1ccc2c(c1)C(=O)N(C1CCCCC1)C2=O	1%	0%	.	6.9%
54	O=C(O)Cc1coc2ccc3ccccc3c12	-8%	-14%	-3	2.7%

Going on with the list:
no.	mol	miR-21 FLuc	Rango release inh	GLA inh pH 4.5	Rango-impB inh
61	CCOc1cc(N2CCOCC2)c(OCC)cc1NC(=O)Cc1ccccc1	1%	6%	-7	3.6%
62	Cc1ccc(C)c(S(=O)(=O)NCc2ccc(C(=O)N3CCOCC3)cc2)c1	4%	8%	.	-0.4%
63	C=CCn1c(CSc2nc3ccccc3s2)nnc1SCC(=O)NCc1ccccc1	10%	0%	-12	0.4%
64	O=C(CN1CCN(Cc2ccccc2)CC1)c1c[nH]c2ccccc12	-13%	0%	-2	-0.2%
65	O=C(/C=C/c1ccc([N+](=O)[O-])cc1)c1ccco1	2%	8%	.	1.1%
66	Cc1cccc(CS(=O)(=O)Cc2ccc(C(=O)NCc3cccs3)o2)c1	7%	1%	2	-0.2%
67	O=C1c2ccccc2C(Nc2ccc(F)c(Cl)c2)N1c1ccccn1 (centres undefined)	6%	33%	1	-2.5%
68	Cc1csc(SCC(=O)Nc2sccc2C#N)n1	-8%	0%	1	-5.5%
69	COc1ccccc1NC(=O)COc1ccc(C(=O)OCC(=O)N2CCCC2=O)cc1OC	-1%	-15%	-4	?
70	c1c2c(cc3sc(N4CCCCC4)nc13)OCO2	2%	-4%	-1	-4.0%
71	COc1ccc2[nH]c(C(=O)N3CCN(C)CC3)c(C)c2c1	-4%	1%	.	0.1%
72	COc1ccc(CCNC(=O)c2cc3c(=O)n4ccccc4nc3n(C3CCCCC3)c2=N)cc1	-1%	?	.	?
73	COC(=O)c1cc(S(=O)(=O)NCCN2CCN(c3ccccc3F)CC2)c[nH]1	-4%	-8%	.	-2.5%
74	O=C(N/C(=C/c1cccs1)C(=O)N1CCOCC1)c1ccco1	-1%	-4%	-5	5.7%
75	Cn1c(=O)c2c(nc3n2CCCN3CCc2ccccc2)n(C)c1=O	4%	-1%	.	-4.3%
76	O=C(CN(Cc1ccc(F)cc1)C(=O)c1csnn1)NCc1ccc2c(c1)OCO2	-1%	8%	.	-3.6%
77	COc1ccc(CN(C)C(=O)CCCNC(=O)c2ccc(Cl)cc2)cc1	4%	-13%	.	0.8%
78	Cc1oc(-c2ccc(Cl)cc2)nc1CSCC(=O)NC1CCN(Cc2ccccc2)CC1	24%	2%	.	-1.4%
79	CC(=O)Oc1cc2c3c(c1)/C(=C1/SC(=S)NC1=O)C(=O)N3C(C)(C)C=C2C	6%	-16%	-9	?
80	O=C(COc1ccc(Cl)cc1)Nc1cc(S(=O)(=O)N2CCCCC2)ccc1N1CCCCC1	0%	-8%	-4	-2.0%
81	CCn1nc(C)c(CN2CCc3c([nH]c4ccccc34)C2c2ccc(F)c(OC)c2)c1C (centres undefined)	-4%	?	-7	?
82	CCOc1ccc(NS(=O)(=O)c2ccc(C)c(C(=O)NCCCn3ccnc3)c2)cc1	-4%	1%	-8	1.1%
83	CCCCNc1ccc(C(CC(N)=O)NC(=O)Cc2cccc3ccccc23)cc1[N+](=O)[O-] (centres undefined)	-2%	-6%	4	-1.1%
